# Bioassay records (PubChem BioAssay)
# NOMO-1 viab = NOMO-1 AML cell viability reduction, primary screen, STK33 inhibitor project, CellTiter-Glo luminescence. inhibition, % (no concentration beside the values). AID 2330, 2010. NOMO-1 AML viability, 72 h. 37,000 tested, 7.5% active;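 active means most replicates above 80%; inconclusive means exactly half above 80%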;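 further: wells of about 30 µL received 25 nL stock; 0% = median of vehicle wells and 100% = reference inhibitor level; the first replicate is given; inactives centre near 10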
# The depositor's hits bear a star; ? = inconclusive. Only part of the results is shown (hit frequency here may not be typical).
no.	Molecule	NOMO-1 viab
1	O=C(CSc1n[nH]c(-c2ccco2)n1)Nc1sc2c(c1C(=O)Nc1ccccc1)CCCC2	25
2	CCOc1cc(C)c(S(=O)(=O)NCCN2CCOCC2)cc1C	8
3	CN(CC(=O)Nc1ncn[nH]1)S(=O)(=O)c1cc(Cl)ccc1Cl	3
4	Cn1cc(C(c2ccccn2)c2cn(C)c3ccccc23)c2ccccc21	20
5	C[C@H]1CN([C@@H](C)CO)C(=O)Cc2cc(NC(=O)Nc3ccc4c(c3)OCO4)ccc2O[C@@H]1CN(C)Cc1ccc(C(=O)Nc2ccccc2N)cc1	-9
6	C[C@@H]1CN([C@@H](C)CO)C(=O)c2cc(NC(=O)Nc3ccccc3)ccc2O[C@H]1CN(C)Cc1ccncc1	25
7	Cc1noc(C)c1NC(=O)N(C)C[C@H]1OCCCC[C@@H](C)Oc2ccc(NS(=O)(=O)c3ccccc3)cc2C(=O)N([C@H](C)CO)C[C@@H]1C	-7
8	C[C@@H]1CN([C@@H](C)CO)C(=O)c2cc(NC(=O)c3ccncc3)ccc2O[C@@H]1CN(C)C	-2
9	CS(=O)(=O)N(CC(=O)O)c1ccc(Cl)cc1	4
10	C[C@@H]1CCCCO[C@H](CN(C)S(=O)(=O)c2ccc(Cl)cc2)[C@@H](C)CN([C@H](C)CO)C(=O)c2cc(NC(=O)Nc3ccc(C(F)(F)F)cc3)ccc2O1	98*

# Among those listed so far, 7 contain a carbonyl joined to an NH by a bond outside any ring:
no.	Molecule	NOMO-1 viab
1	O=C(CSc1n[nH]c(-c2ccco2)n1)Nc1sc2c(c1C(=O)Nc1ccccc1)CCCC2	25
3	CN(CC(=O)Nc1ncn[nH]1)S(=O)(=O)c1cc(Cl)ccc1Cl	3
5	C[C@H]1CN([C@@H](C)CO)C(=O)Cc2cc(NC(=O)Nc3ccc4c(c3)OCO4)ccc2O[C@@H]1CN(C)Cc1ccc(C(=O)Nc2ccccc2N)cc1	-9
6	C[C@@H]1CN([C@@H](C)CO)C(=O)c2cc(NC(=O)Nc3ccccc3)ccc2O[C@H]1CN(C)Cc1ccncc1	25
7	Cc1noc(C)c1NC(=O)N(C)C[C@H]1OCCCC[C@@H](C)Oc2ccc(NS(=O)(=O)c3ccccc3)cc2C(=O)N([C@H](C)CO)C[C@@H]1C	-7
8	C[C@@H]1CN([C@@H](C)CO)C(=O)c2cc(NC(=O)c3ccncc3)ccc2O[C@@H]1CN(C)C	-2
10	C[C@@H]1CCCCO[C@H](CN(C)S(=O)(=O)c2ccc(Cl)cc2)[C@@H](C)CN([C@H](C)CO)C(=O)c2cc(NC(=O)Nc3ccc(C(F)(F)F)cc3)ccc2O1	98*

# Further records follow:
no.	Molecule	NOMO-1 viab
11	CCN(CC)CC(O)Cn1c2c(c3ccccc31)CCCC2=O (stereo unspecified)	21
12	COC(=O)c1c(NC(=S)NC(=O)CN2C(=O)c3ccccc3C2=O)sc2c1CCCC2	49
13	COc1ccc(OCC(=O)N2CCN(S(=O)(=O)c3ccc(OC)cc3)CC2)cc1	28
14	S=c1nc(-c2ccccc2)n(-c2ccc(Br)cc2)c2c1CCCC2	35
15	CNC[C@@H]1Oc2ccc(NC(=O)C3CC3)cc2C(=O)N([C@@H](C)CO)C[C@H]1C	13
16	Cn1ccc(-c2cccc(NC(=O)Nc3ccccc3)c2)n1	29
17	C[C@H]1CN([C@@H](C)CO)C(=O)c2cc(NS(C)(=O)=O)ccc2O[C@@H]1CN(C)C(=O)Nc1cccc2ccccc12	19
18	CC(=O)c1ccc(NC(=O)CN(C)S(=O)(=O)c2ccc(Br)cc2)cc1	19
19	Cc1noc(C)c1NC(=O)Nc1ccc2c(c1)CC(=O)N([C@H](C)CO)C[C@@H](C)[C@@H](CN(C)C)O2	4
20	C[C@H]1CN([C@@H](C)CO)C(=O)c2cc(NS(=O)(=O)c3cn(C)cn3)ccc2O[C@H]1CN(C)CC1CC1	2
21	COc1ccccc1NC(=O)CNC(=O)c1ccccc1F	-20
22	C[C@@H]1CN([C@@H](C)CO)C(=O)c2cc(NC(=O)c3ccncc3)ccc2O[C@H]1CN(C)Cc1ccccc1	12
23	COc1ccc(S(=O)(=O)Nc2cccc3c2O[C@@H](CN(C)C(=O)NC(C)C)[C@@H](C)CN([C@@H](C)CO)C3=O)cc1	8
24	O=C1CSC(=NC2CC2)N1Cc1cccs1	-6
25	COc1ccc(OC)c(-n2c(CN3CCC(C(N)=O)CC3)nc3ccccc3c2=O)c1	27
26	COc1ccc(NC(=O)CSc2nnc(-c3ccc(Br)cc3)n2C)cc1	16
27	C[C@H](CO)N1C[C@H](C)[C@H](CN(C)S(C)(=O)=O)Oc2ccc(NS(=O)(=O)c3cn(C)cn3)cc2CC1=O	-7
28	COc1ccc(NC(=O)Nc2ccc3c(c2)C(=O)N([C@@H](C)CO)C[C@H](C)[C@@H](CN(C)C(=O)Nc2cccc4ccccc24)O3)cc1	19
29	Cc1nnc(SCC(=O)Nc2ccc(Oc3ccccc3)cc2)[nH]c1=O	10
30	Cc1noc(C)c1NC(=O)Nc1ccc2c(c1)CC(=O)N([C@H](C)CO)C[C@@H](C)[C@@H](CN(C)C(=O)Nc1ccc3c(c1)OCO3)O2	10
31	Cc1ccc(S(=O)(=O)Nc2ccc3c(c2)CC(=O)N([C@H](C)CO)C[C@H](C)[C@H](CN(C)Cc2ccc(C(F)(F)F)cc2)O3)cc1	104*
32	C[C@H]1CN([C@@H](C)CO)C(=O)c2cccc(NC(=O)c3cnccn3)c2O[C@@H]1CN(C)S(=O)(=O)c1cn(C)cn1	0
33	COc1ccc(NC(=O)N(C)C[C@H]2Oc3ccc(NC(=O)CCN4CCOCC4)cc3C(=O)N([C@H](C)CO)C[C@H]2C)cc1	-6
34	COc1ccc(S(=O)(=O)Nc2ccc3c(c2)C(=O)N([C@H](C)CO)C[C@H](C)[C@@H](CN(C)S(=O)(=O)c2cn(C)cn2)O3)cc1	-8
35	Cc1ccc(S(=O)(=O)N2CCN(CC(O)COc3ccc4ccccc4c3)CC2)cc1 (stereo unspecified)	25
36	COc1ccc(NC(=O)N(C)C[C@H]2Oc3ccc(NS(=O)(=O)c4ccc(F)cc4)cc3C(=O)N([C@H](C)CO)C[C@@H]2C)cc1	-2
37	Cc1ccc(S(=O)(=O)N(C)C[C@H]2Oc3ccc(NC(=O)Cn4cnnn4)cc3C(=O)N([C@H](C)CO)C[C@@H]2C)cc1	16
38	CC(C)NC(=O)N(C)C[C@H]1Oc2c(NC(=O)C3CC3)cccc2C(=O)N([C@H](C)CO)C[C@H]1C	-11
39	C[C@@H]1CN([C@H](C)CO)C(=O)c2cc(NC(=O)CCCN(C)C)ccc2O[C@H]1CN(C)Cc1ccc(C(=O)O)cc1	-16
40	COc1ccc2c(c1)CCC(=O)C2	3
41	COc1ccc(C(C)C)cc1S(=O)(=O)Nc1ccccn1	-15
42	CC(=O)c1cccc(NC(=O)Cc2ccccc2[N+](=O)[O-])c1	24
43	CCc1cccc2c(C(C(=O)c3ccccc3)c3c[nH]c4c(CC)cccc34)c[nH]c12	111*
44	C[C@H]1CN([C@@H](C)CO)C(=O)Cc2cc(NC(=O)NC3CCCCC3)ccc2O[C@H]1CN(C)S(=O)(=O)c1ccc(F)cc1	?
45	COc1ccc(S(=O)(=O)N(C)C[C@@H]2OCCCC[C@@H](C)Oc3ccc(NS(=O)(=O)c4ccc(C)cc4)cc3C(=O)N([C@H](C)CO)C[C@@H]2C)cc1	65
46	C[C@H]1CN([C@@H](C)CO)C(=O)c2cc(NS(=O)(=O)c3ccccc3)ccc2O[C@H]1CN(C)S(C)(=O)=O	39
47	C[C@H]1CN([C@@H](C)CO)C(=O)c2cc(NC(=O)Nc3ccc(C(F)(F)F)cc3)ccc2O[C@@H]1CN(C)Cc1ccc(C(=O)O)cc1	-23
48	Cn1c(SCC(=O)N2c3ccccc3Sc3ccccc32)nnc1-c1ccco1	4
49	COC(=O)C1=C(N)OC2=C(C(=O)CC(C)(C)C2)C1c1ccc(C(=O)OC)cc1 (stereo unspecified)	9
50	Cc1ccc(S(=O)(=O)Nc2ccc3c(c2)C(=O)N([C@H](C)CO)C[C@@H](C)[C@@H](CN(C)S(=O)(=O)c2ccc(F)cc2)O3)cc1	7

# Exported with each value named: part of the list above.
1: O=C(CSc1n[nH]c(-c2ccco2)n1)Nc1sc2c(c1C(=O)Nc1ccccc1)CCCC2
  NOMO-1 viab = 25

2: CCOc1cc(C)c(S(=O)(=O)NCCN2CCOCC2)cc1C
  NOMO-1 viab = 8

# Some values from the entries so far:
# NOMO-1 viab result of no. 42 = 24
# NOMO-1 viab result of no. 41 = -15
# NOMO-1 viab result of no. 46 = 39

# Going on with the list.
no.	Molecule	NOMO-1 viab
51	C[C@@H]1CN([C@H](C)CO)C(=O)Cc2cc(NC(=O)Cc3ccccc3)ccc2O[C@H]1CN(C)Cc1ccc2c(c1)OCO2	7
52	C[C@@H]1CN([C@@H](C)CO)C(=O)Cc2cc(NS(=O)(=O)c3ccccc3)ccc2O[C@@H]1CN(C)S(=O)(=O)c1ccc(F)cc1	-9
53	COc1c(O[C@@H]2O[C@H](C(=O)O)[C@@H](O)[C@H](O)[C@H]2O)cc2oc(-c3ccc(O)cc3)cc(=O)c2c1O	15
54	COc1ccc(NC(=O)N(C)C[C@@H]2Oc3ccc(NS(=O)(=O)c4cccs4)cc3C(=O)N([C@@H](C)CO)C[C@H]2C)cc1	7
55	CCOC(=O)c1c(NC(=S)NC(=O)c2ccc(OC)c([N+](=O)[O-])c2)sc2c1CCC2	-6
56	O=C(CN1CCc2ccccc2C1)Nc1ccc(S(=O)(=O)N2CCOCC2)cc1	-5
57	C[C@H](CO)N1C[C@H](C)[C@H](CN(C)C(=O)Nc2ccc(C(F)(F)F)cc2)Oc2c(NS(=O)(=O)c3ccc(Cl)cc3)cccc2C1=O	61
58	C[C@H](CO)N1C[C@H](C)[C@H](CN(C)S(=O)(=O)c2ccc(Cl)cc2)Oc2ccc(NC(=O)Nc3ccc(F)cc3)cc2C1=O	39
59	Cc1cc(Br)ccc1NC(=O)CSc1nnc(-c2ccccc2O)n1-c1ccccc1	2
60	O=C(CSc1nnnn1-c1ccccc1)Nc1nsc(-c2ccccc2)n1	-18
61	COc1cc(NC(=O)C(C)Oc2ccccc2)c(Cl)cc1NC(=O)c1ccc(Cl)cc1 (stereo unspecified)	21
62	Cc1ccc(S(=O)(=O)c2c(C)nn(C(C)(C)C)c2OC(=O)c2ccccc2Br)cc1	105*
63	C[C@@H]1CN([C@H](C)CO)C(=O)c2cccc(NC(=O)Nc3ccc(C(F)(F)F)cc3)c2O[C@@H]1CN(C)Cc1ccc(Oc2ccccc2)cc1	107*
64	Cc1nn(C)c(C)c1NC(=O)CSc1nnc(C)n1-c1ccccc1	24
65	COc1ccc(C)cc1S(=O)(=O)N1CCC(C(=O)Nc2cc(Cl)ccc2Cl)CC1	13
66	C[C@@H]1CN([C@H](C)CO)C(=O)Cc2cc(NC(=O)c3ccncc3)ccc2O[C@@H]1CN(C)C(=O)Nc1ccc(C(F)(F)F)cc1	-6
67	C[C@H]1CN([C@@H](C)CO)C(=O)c2cccc(NS(=O)(=O)c3ccc(Cl)cc3)c2O[C@@H]1CN(C)Cc1ccc(Cl)c(Cl)c1	50
68	C[C@@H]1CN([C@H](C)CO)C(=O)c2cccc(N(C)C)c2O[C@H]1CN(C)S(=O)(=O)c1cccs1	0
69	COc1ccc(C(=O)NCc2c(C)oc(C)c2C(=O)O)cc1	19
70	C[C@@H]1CN([C@H](C)CO)C(=O)c2cccc(NC(=O)Nc3ccc4c(c3)OCO4)c2O[C@H]1CN(C)C	40
71	C[C@H]1CN([C@@H](C)CO)C(=O)c2cccc(NC(=O)Nc3cccc4ccccc34)c2O[C@@H]1CN(C)S(=O)(=O)c1cn(C)cn1	26
72	COc1ccc(NC(=O)N(C)C[C@@H]2Oc3ccc(NS(=O)(=O)c4cn(C)cn4)cc3C(=O)N([C@H](C)CO)C[C@@H]2C)cc1	8
73	Cc1c(C2CCN(CCc3ccccc3)CC2)noc1-c1ccc(Cl)cc1	93*
74	C[C@H](CO)N1C[C@H](C)[C@@H](CN(C)Cc2ccc3c(c2)OCO3)Oc2c(NC(=O)Nc3ccc4c(c3)OCO4)cccc2C1=O	49
75	C[C@@H]1CN([C@@H](C)CO)C(=O)c2cccc(NC(=O)Nc3ccc(C(F)(F)F)cc3)c2O[C@@H]1CN(C)S(=O)(=O)c1cccs1	97*
76	C[C@@H]1CN([C@@H](C)CO)C(=O)c2cccc(NC(=O)c3cnccn3)c2O[C@H]1CN(C)C(=O)NC1CCCCC1	22
77	CCC(=O)Nc1cccc(NC(=O)COc2cc(C)cc(C)c2)c1	7
78	C[C@@H]1CN([C@H](C)CO)C(=O)c2cc(NS(=O)(=O)c3ccc(F)cc3)ccc2O[C@@H]1CN(C)Cc1ccc(C(=O)Nc2ccccc2N)cc1	108*
79	Cn1cnnc1SCC(=O)c1ccc2c(c1)OCCO2	-3
80	C[C@H]1CN([C@@H](C)CO)C(=O)c2cc(NC(=O)Cc3cn(C)c4ccccc34)ccc2O[C@@H]1CN(C)Cc1ccc(C(=O)O)cc1	9
81	Cc1ccc(S(=O)(=O)N(C)C[C@@H]2Oc3ccc(NC(=O)Cn4cnnn4)cc3C(=O)N([C@H](C)CO)C[C@@H]2C)cc1	3
82	CC(=O)c1ccc(NC(=O)CSc2n[nH]c(-c3ccncc3)n2)cc1	-18
83	C[C@@H]1CN([C@H](C)CO)C(=O)Cc2cc(NS(=O)(=O)c3ccc(F)cc3)ccc2O[C@H]1CN(C)Cc1ccc(C(=O)Nc2ccccc2N)cc1	?
84	COc1ccc(OCC(=O)Nc2cc(-c3nnc(OC)c4ccccc34)ccc2N2CCCCC2)cc1	89*
85	Cc1ccc(S(=O)(=O)N(CC(=O)O)CC(=O)O)cc1	35
86	Cc1ccc(-c2nc3c(c(SCC(=O)Nc4cccc(C(F)(F)F)c4)n2)COC(C)(C)C3)cc1	59
87	C[C@H](CO)N1C[C@H](C)[C@H](CN(C)Cc2ccc(-c3ccccc3)cc2)Oc2ccc(NC(=O)CCN3CCOCC3)cc2CC1=O	26
88	C[C@@H]1CN([C@@H](C)CO)C(=O)c2cccc(NC(=O)Nc3cccc4ccccc34)c2O[C@H]1CN(C)S(=O)(=O)c1cn(C)cn1	-12
89	C[C@H]1CN([C@@H](C)CO)C(=O)Cc2cc(N(C)C)ccc2O[C@H]1CN(C)Cc1ccc(C(=O)O)cc1	-4
